# Screening results deposited in PubChem by Fisher Drug Discovery Resource Center.
# NPYLR7 ag: activates Aedes aegypti NPYLR7 receptor; HEK293T NPYLR7/Galpha15, GCaMP6s calcium fluorescence; activation, % at 10 µM; 270,000 tested, 0.15% active; in the data active = activation above about 40%;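 also: 0% = vehicle and 100% = reference agonist at the receptor; some compounds past the cut are filed as inactive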
# NPYLR7 ag max-min: further read-out of NPYLR7 ag, marked with its call; activation, %; measured here: Max-Min RFU normalised activation; some inactives read as strong as hits;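 span of the calcium signal over five minutes; 0% = vehicle and 100% = native peptide agonist; compound fluorescence can raise it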
# * = called active by the depositor. Not all compounds are listed, so the mix of outcomes need not match the whole.
# Under each structure: NPYLR7 ag, NPYLR7 ag max-min
> Clc1ccc2nc(N/N=C/c3nc4ccccc4[nH]3)nc(-c3ccccc3)c2c1
 : 0, -4
> Cc1nn(CC(C)C)c2sc(C(=O)NC3(C)CCS(=O)(=O)C3)cc12 (stereo not drawn)
 : 0, 18
> CNC(=O)CCc1nc2c(c(=O)[nH]c(=O)n2CC(C)C)n1CCOC
 : 5, 1
> CC(=O)Nc1sc2c(c1C(c1cccnc1)N1CCCC1)CCCC2 (stereo not drawn)
 : 4, 8
> CNC(=O)[C@@H]1C[C@@H](N)CN1Cc1ccc(S(C)(=O)=O)cc1
 : 0, 11
> CC(=O)c1ccc(C(=O)NC(C)c2ccc(-c3cncnc3)cc2)cc1 (stereo not drawn)
 : 4, 1
> O=C(Nc1cc(Cl)ccc1-n1cncn1)C1CCCO1 (stereo not drawn)
 : 7, 4
> CN(CCO)c1nc(NCc2ccccc2)c2cnn(C)c2n1
 : 5, 1
> O=[N+]([O-])c1cnc(Oc2ccc(Cl)cc2Cl)s1
 : -5, -5
> CCCN1C(=O)COCc2cc(-c3ccc(OC)nc3)ccc21
 : 5, 3
> CCN1C(=O)SC(Nc2ccc(OC)cc2)C1=O (stereo not drawn)
 : 8, 8
> CNC(=O)c1cn(-c2ccc(S(=O)(=O)N3CCCC3)cn2)cn1
 : -9, -12
> COc1cccc(-c2nc3ccccn3c2NC(=O)C(C)Cl)c1 (stereo not drawn)
 : -11, -10
> CCN1CCN(Cc2nc3c(c(=O)n(C)c(=O)n3C)n2CCCc2ccccc2)CC1
 : 1, 18
> CC1c2cccn2CCN1C(=O)/C=C/c1ccc(C#N)cc1 (stereo not drawn)
 : 10, 6
> CCOC(=O)CCC(=O)N1CCN(c2nc(-c3cccc(C(F)(F)F)c3)nc(C)c2Cc2ccccc2)CC1
 : -5, -1
> Cc1noc(-c2cccnc2)c1C(=O)NCc1cccc(F)c1F
 : -2, 5
> COc1cc(CNCCC(C)C)cc(OC)c1
 : 28, 28
> O=c1[nH]c(CSc2nnc(-c3ccco3)n2C2CCCCC2)nc2ccsc12
 : 6, 6
> CCS(=O)(=O)N1Cc2ccccc2CC1C(=O)Nc1cccc(C)c1 (stereo not drawn)
 : -3, -3
> O=C(C1CCCC1)N(Cc1nccn1Cc1ccc(F)cc1)CC1CC1
 : 5, 7
> COc1cc(CNc2ccc(S(=O)(=O)NC3CCC(C)CC3)cc2[N+](=O)[O-])ccn1 (stereo not drawn)
 : 0, -1
> Cc1nn(-c2ccc(F)cc2)c2nc(CC3CCCCC3)nc(N3CCN(C(=O)c4cccs4)CC3)c12
 : 2, 2
> Cn1ncc(N=Cc2ccccc2O)c1C(=O)N1CCOCC1
 : -2, -5
> COc1cc(S(=O)(=O)Nc2ccc(I)cc2)ccc1N
 : 1, 0
> COc1ccccc1NC(=O)Cn1nc(C(C)C)c2cnn(-c3ccc(F)cc3)c2c1=O
 : 5, 2
> O=C(c1ccco1)N1CCN(c2cc(Oc3ccc(F)cc3Cl)ncn2)CC1
 : 1, 2
> CCc1nc2n(n1)C(=O)C(C(c1ccccc1)N1CCN(CC)CC1)S2 (stereo not drawn)
 : -7, -10
> Cc1[nH]c2ccc(CNC(=O)c3ccccc3-c3ncc[nH]3)cc2c1C
 : 10, 13
> O=C(NCCc1cccc(Cl)c1)C1CC=CCC1C(=O)N1CCN(c2ccccn2)CC1 (stereo not drawn)
 : -5, -7
> COCc1cc(C)nc(OCC(=O)N/N=C\c2ccc(OC)cc2OC)c1C#N
 : -11, -22
> CCCNC(=O)C(NS(=O)(=O)c1ccccc1)C1CCN(C(=O)c2ccc(F)cc2)CC1 (stereo not drawn)
 : 4, 3
> O=C(CCOc1ccccc1)N1CCC(CO)(Cc2ccc(Cl)cc2)CC1
 : 2, -3
> Cc1ccc(C(=O)Nc2sc3c(c2C(=O)N2CCCCC2)CCC(C)C3)cc1 (stereo not drawn)
 : -8, -8
> CCn1c(CC2CCN(Cc3ccc(NC(C)=O)cc3)CC2)nn(C)c1=O
 : -3, -5
> COc1ccc(N2C(=O)CSC2c2cccs2)c(OC)c1 (stereo not drawn)
 : -7, -14
> O=C(c1ccc2ncccc2c1)N1C[C@H](O)[C@@H](N2CCOCC2)C1
 : 7, 6
> COC(=O)Cn1c(CN2CCN(Cc3ccccc3)CC2)nc2c1c(=O)n(C)c(=O)n2C
 : -4, -4
> Cc1ccc(-n2nc(C(=O)NCC3CCCO3)c(=O)n(Cc3ccc(C(F)(F)F)cc3)c2=O)cc1C (stereo not drawn)
 : 13, 11
> CCNC(=O)Cc1nc(-c2ccncc2)n[nH]1
 : 6, 4
> Cc1nc2cnc(-c3ccc(O)cc3)cn2c1NC(=O)c1cccs1
 : -13, -12
> CNC(=O)c1cc(NC(=O)NCc2ccc(F)cc2)ccc1Cl
 : 1, -2
> Cc1cc(C)n(Cc2ccc(C(=O)N3CCC4(CN(C)C(=O)O4)C3)cc2)n1 (stereo not drawn)
 : 3, 1
> O=C(Nc1ccc(OCc2ccco2)c(Cl)c1)N1CCOCC1
 : 7, 2
> Cc1cccc(-c2nc(C)nn2CC(=O)Nc2ccccc2C)c1
 : -1, 13
> O=C(NCCc1cccc(O)c1)C(=O)Nc1ccc(Cl)cc1F
 : -5, -5
> C#CCn1c(=NC(=O)c2ccn(C)n2)sc2cccc(F)c21
 : 3, 9
> COc1cc(NC(=O)Cn2ccnc2C)cc(OC)c1
 : 9, 7
> CS(=O)(=O)n1c(=O)oc2ccccc21
 : 5, 4
> CCC(C(=O)NCC1=CCCN(C)C1)c1ccccc1 (stereo not drawn)
 : 4, 2

# Next structures:
# Under each structure: NPYLR7 ag, NPYLR7 ag max-min
> COc1cccc(-n2c(C3(c4ccc(Cl)cc4)CCC3)n[nH]c2=S)c1
 : -17, -22
> CCCCc1ccc(NC(=O)Cn2cc(OC)c(=O)cc2CSc2nnnn2C)cc1
 : -4, -7
> CCc1nn(C)c(Cl)c1CN(Cc1ccco1)C(C)C(C)C (stereo not drawn)
 : 11, 2
> CCn1c(=O)c(C(=O)NCc2ccco2)nn(-c2ccc(Cl)cc2)c1=O
 : 1, 14
> CC(C)=CCC1=C(O)c2ccccc2C(=O)C1=O
 : -1, -2
> Cc1cc(OCC2CN(C(=O)Cn3cnnn3)CCO2)ccc1Cl (stereo not drawn)
 : 23, 28
> CCc1[nH]n(C)c(=O)c1C1=C(N(C)C2CCCCC2)C(=O)N(c2ccccc2F)C1=O
 : -7, 4
> COC(=O)C1=C2SCC(=O)N2C(=N)C(C#N)C1 (stereo not drawn)
 : 12, 3
> COCCn1cncc1Cn1ccnc1-c1c(F)cccc1Cl
 : 15, 12
> COC(=O)c1c(C)[nH]c(C(=O)NC(C)Cc2cccc(Cl)c2)c1C (stereo not drawn)
 : 6, 1
> NS(=O)(=O)c1ccc(NN=C2CCCC2)c([N+](=O)[O-])c1
 : 6, 5
> Cc1ccc(C(=O)NC2CC3(CCN(C)CC3)Oc3ccccc32)o1 (stereo not drawn)
 : 2, 2
> O=c1ccc(-c2ccncc2)nn1CCNS(=O)(=O)c1ccc(OC(F)(F)F)cc1
 : 10, 0
> Cc1ccc2nc(C)c(NC(=O)c3ccc(Cl)cc3)c(=O)n2c1
 : 3, 0
> CCN(C(=O)CN1CCN(S(=O)(=O)c2cccs2)CC1)C1=CCCC1
 : 11, 7
> Cc1ccc(C(=O)N2CCN(Cc3cccc(-c4noc(-c5cccc(Cl)c5)n4)c3)CC2)c(Cl)n1
 : 4, 1
> O=C(CCC1CCCC1)Nc1c2c(nn1-c1ccc([N+](=O)[O-])cc1)CS(=O)(=O)C2
 : -3, -4
> CC(C)Cn1ncc2c1NC(=O)CC2c1ccccc1-c1ccco1 (stereo not drawn)
 : -3, -12
> COc1ccc(F)cc1-c1csc(-c2ccc(NC(=O)c3cccs3)cc2)n1
 : 9, 5
> Cc1cc(C(=O)NCCN2CCCC2)nc2cc(C(C)(C)C)nn12
 : 24, 33

# 4 entries from above, ordered by SMILES length, smallest number first:
# Under each structure: NPYLR7 ag, NPYLR7 ag max-min
> Cc1ccc(C(=O)NC2CC3(CCN(C)CC3)Oc3ccccc32)o1 (stereo not drawn)
 : 2, 2
> CCN(C(=O)CN1CCN(S(=O)(=O)c2cccs2)CC1)C1=CCCC1
 : 11, 7
> COc1ccc(F)cc1-c1csc(-c2ccc(NC(=O)c3cccs3)cc2)n1
 : 9, 5
> Cc1ccc(C(=O)N2CCN(Cc3cccc(-c4noc(-c5cccc(Cl)c5)n4)c3)CC2)c(Cl)n1
 : 4, 1

# More results.
# Under each structure: NPYLR7 ag, NPYLR7 ag max-min
> CSc1ccc(CC2(CCC(=O)N3CCN(c4ncc5ccccc5n4)CC3)CCC(=O)N2)cc1 (stereo not drawn)
 : 2, -3
> O=C(NCCCn1ccnc1)c1nnc2n(c1=O)CCN2c1ccccc1
 : 2, 1
> Cc1ccc(-c2nn3c(CC#N)nnc3c3ccccc23)cc1
 : 1, -1
> CCN(CCCN1CCOCC1)C(=O)c1ccccc1C1CCNC1 (stereo not drawn)
 : -5, -16
> CCCCC(Sc1nc(N)c(NC(=O)c2ccc(OCC)cc2)c(=O)[nH]1)C(=O)O (stereo not drawn)
 : 1, 2
> CC(C)(C)c1nnc(SCCc2ccccc2)n(N)c1=O
 : 4, 9
> CCCCCC(=O)N1[C@@H](c2ccccc2)[C@@H](C(=O)O)C[C@]12CCCCNC2=O
 : 4, 13
> CCC(CC)N(CCc1ccccc1)C(=O)c1cnc(C)[nH]c1=O
 : 3, 1
> CC1(C(=O)NCc2ccccc2)Cc2c(-c3cccc(C(N)=O)c3)ccnc2O1 (stereo not drawn)
 : 7, 20
> CNC(=O)c1c(-c2c(Cl)cccc2Cl)noc1C
 : 4, 4
> CC(Sc1ncnc2c1nnn2-c1ccc(F)cc1)c1ccccc1 (stereo not drawn)
 : 13, 17
> C=CCn1c(SCC(=O)Nc2sc(C)c(C)c2C(=O)OCC)nc2sc(C)c(C)c2c1=O
 : -5, -11
> COc1ccc(OC)c(NC(=O)C2(C)CCN2C(=O)Cc2ccsc2)c1 (stereo not drawn)
 : -5, -11
> CC(C)(C)c1ccc(S(=O)(=O)n2cc(-c3ccccc3)c(N)n2)cc1
 : -21, -26
> Cc1cc(COc2ccc3cc(Br)ccc3c2)no1
 : 11, 15
> CC(C)c1cc(-c2ccc(F)c3ccccc23)nc(N)n1
 : 2, -5
> CCn1nnc2c(NCc3ccc4c(c3)OCO4)ncnc21
 : 18, 13
> CCN(CCn1cccn1)C(=O)c1ccoc1C
 : -1, 0
> c1ccc(COC2CCCN(Cc3cnc(-c4cccs4)nc3)C2)nc1 (stereo not drawn)
 : 1, 6
> Cc1cnc(N2CCN(c3nc(N(C)C)cc(C(F)(F)F)n3)CC2)s1
 : -2, -5

# Random excerpt: 2 entries already listed.
# Under each structure: NPYLR7 ag, NPYLR7 ag max-min
> CC(C)(C)c1ccc(S(=O)(=O)n2cc(-c3ccccc3)c(N)n2)cc1
 : -21, -26
> CC(C)c1cc(-c2ccc(F)c3ccccc23)nc(N)n1
 : 2, -5

# Continued:
# Under each structure: NPYLR7 ag, NPYLR7 ag max-min
> CCNc1nc(Nc2ccc(OC)cc2)c2cn[nH]c2n1
 : 3, 1
> CC(C)c1ccc2nc(Cc3cccc(C(N)=O)c3)[nH]c(=O)c2c1
 : -2, -3
> CC(=O)Nc1ccc(S(=O)(=O)NCc2nnnn2-c2ccc(Cl)cc2)cc1
 : 14, 6
> CCCS(=O)(=O)N1CCN(c2ncccc2C(=O)NCc2cccs2)CC1
 : -3, -9
> FC(F)Oc1ccc(N=C2SCC3CCCCN23)cc1 (stereo not drawn)
 : 10, 4
> O=C(Cn1cnc([N+](=O)[O-])n1)Nc1ccc(F)c(Cl)c1
 : -5, -12
> Cc1cc(C(=O)N2CC(OCC(=O)N(C)C)C2)nn1-c1ccccc1
 : -2, -2
> CC(=NNc1nc2ccccc2[nH]1)C1CC1
 : 4, 3
> O=C(Cc1cccs1)Nc1nnc(SCc2cc(F)ccc2F)s1
 : 3, 9
> CCOCC(O)CN(Cc1ccccc1F)CC1CC(c2ccc(Cl)cc2)=NO1 (stereo not drawn)
 : -4, 3
> CCOc1ccccc1N1CCN(C(=O)c2cc(-c3ccc(F)cc3)nc3cc(C(C)(C)C)nn23)CC1
 : 6, 10
> COC(=O)c1ccc(Oc2c(C)oc3c4c(ccc3c2=O)OCN(Cc2cccnc2)C4)cc1
 : 1, -2
> COc1ccc(-c2c(C(F)(F)F)noc2-c2ccc(O)cc2O)cc1OC
 : 0, -4
> O=c1cc(-c2ccccc2)oc2ccc(Cl)cc12
 : 4, 5
> O=C(Nc1nc2c(s1)CCCCC2)c1cncn1-c1ccc(F)cc1
 : -5, -5
> CCCc1ccccc1N1C(=O)CSC1c1cccc(NC(=O)c2cccc([N+](=O)[O-])c2)c1 (stereo not drawn)
 : 4, 6
> N#Cc1ccc(CS(N)(=O)=O)cc1
 : 10, 9
> CC(=O)OCc1ccc(C=CC(=O)O)o1
 : 1, 0
> CCOC(=O)C1(CCCc2ccccc2)CCN(C(=O)NCc2ccccc2)CC1
 : -11, -10
> Cc1ccc(OCC(=O)N2N=C3CCCCC3C2(O)C(F)(F)F)cc1C (stereo not drawn)
 : 7, 5
> CCC(CC)(CCO)CNC(=O)c1ccncc1Cl
 : 2, 2
> COc1cccc(C(=O)N2CCN(C(C(=O)NCc3cccc(C)c3)C3CCCC3)CC2)c1 (stereo not drawn)
 : -4, 0
> O=C(CSc1nccn(-c2ccc(F)c(F)c2)c1=O)NC1CCCCC1
 : -1, 5
> O=C1CC(=O)CC2(CCCC2)C1
 : -1, 0
> c1ccc(OCCCn2c3ccccc3c3nc4ccccc4nc32)cc1
 : 3, 2
> Cc1ccc(NC(=O)N(CCN2CCOCC2)Cc2c(-c3ccccc3)noc2N(C)C(C)C)cc1
 : 10, 9
> O=C(N=Nc1c(O)[nH]c2ccc(Br)cc12)c1ccccc1Cl
 : 72*, 76*
> Oc1ccc(C=Cc2ccc3ccccc3n2)cc1
 : 3, 0
> CCc1nc2ccc(C(=O)Nc3ccc4c(c3)CCN4C(C)=O)cn2c1N(CCN(C)C)CC1CC1
 : -2, -8
> O=C(CCS(=O)(=O)c1ccccc1)OCc1cc(-c2ccc(F)cc2)on1
 : 0, -3
> COC(=O)c1ccc(CNC2CCN(c3ccc(C(=O)NC4CCCC4)cc3)CC2)cc1
 : 2, 1
